Methyltransferases = Primary Screen for Target Class Profiling of Small Molecule Inhibitors of Methyltransferases; purified enzyme, MTase-Glo SAH luminescence; hits give low values; calls only at 40 µM; 25,000 tested, 3.9% active; active = -50% or lower on at least one of six enzymes; inconclusive = the cases between; inactive = as a rule above -30% on all six;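 also: enzymes were COMT GAMT GNMT HNMT NNMT and PNMT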
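Each enzyme was assayed with SAM and its substrate. SAH formation detected by MTase-Glo luminescence; single-point 40 uM screen[…].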
Calls only; i = inactive; ? = inconclusive; + = active, no number. % is scaled to controls: 0 for no effect and ±100 for the full control effect. A portion of the library (hit frequency here may not be typical).

structure | Methyltransferases
COc1ccc(NS(=O)(=O)c2ccc3[nH]c4c(c3c2)CCCC4)cc1 | i
O=C1CN(Cc2cccc(Cl)c2)S(=O)(=O)c2ccccc2N1Cc1ccc(Cl)cc1 | i
Cc1noc(C)c1-c1cc2c(cc(C)n2C)c(N2CCN(c3ccccn3)CC2)n1 | i
Cn1ncc2c(-c3ccc([S+](C)(=O)[O-])cc3)cc(C(=O)N3CCCC3)nc21 | i
COc1cc(C(=O)NC2CCN(C)CC2)c(F)cc1Nc1ncc2c(n1)N(C1CCCC1)CC(F)(F)C(=O)N2C | ?
O=C1CC(NS(=O)(=O)N2CCCC2)CN1Cc1ccc(F)cc1 (centres undefined) | i
COc1ccc(CN2CC(Oc3ccccc3C(=O)NCc3ccccc3)C2)c(OC)c1 | ?
C=C1CCC2C(C)(COC3OC(COC(=O)CC(=O)O)C(O)C(O)C3O)CCCC2(C)C1CCC1=CCOC1=O (centres undefined) | i
CNC(=O)c1cccc(-c2cnc3[nH]cc(CC(=O)Nc4ccccc4Cl)c3c2)c1 | ?
CC(C)c1nc2c(c(-c3ccc(O)cc3)n1)CCN(CC1CCCCC1)CC2 | ?
CCCCCCCOc1cc2c(cc1/C(C)=C/c1ccc(C(=O)O)cc1)C(C)(C)CCS2(=O)=O | +
COc1ccc(-c2cc(C(=O)Nc3ccc4c(c3)C(=O)N(C)C3=NCCN34)c3ccccc3n2)cc1 | i
COc1ccc(OC)c(CCN2C(=O)c3cc4sccc4n3CC2(C)C(=O)NC2CCCCC2)c1 (centres undefined) | i
COCCN1C(=O)c2ccc(-c3ccccc3)n2CC1(C)C(=O)NC1CCCCCC1 (centres undefined) | i
COc1cccc(Cn2nc3n(C)c(=O)c4ccc(C(=O)NC5CCCC5)cc4n3c2=O)c1 | i
CC(C)CNC(=O)c1ccc2c(=O)n(C(C)C)c3nn(Cc4cccc(Cl)c4)c(=O)n3c2c1 | i
CCCC1c2cccn2CCN1C(=O)Nc1ccc(F)cc1F (centres undefined) | ?
O=C(c1ccc2c(c1)[nH]c(=O)n2C1CCC(O)CC1)N1CCOCC(O)C1 (centres undefined) | i
Cc1ccc(NC(=O)Cn2nc3n(CCC(C)C)c(=O)c4ccccc4n3c2=O)cc1C | i
O=S(=O)(Nc1cccc2ccccc12)c1ccc2[nH]c3c(c2c1)CCCC3 | i
O=C(CCn1ccc2cc(S(=O)(=O)N3CCCCC3)ccc21)NCc1ccccn1 | i
COc1ccccc1CN1C(=O)c2cc(C(C)(C)C)nn2CC1(C)C(=O)NC1CCCCC1 (centres undefined) | i
CCOC(=O)c1cc2n(n1)CC(C)(C(=O)NC1CCCCCC1)N(c1cc(Cl)ccc1C)C2=O (centres undefined) | i
CCCn1c(=O)c2ccc(C(=O)NC3CCCCC3)cc2n2c(=O)n(Cc3cccc(OC)c3)nc12 | i
Cc1oc(C(C)C)cc1C(=O)N1CC[C@](C)(O)[C@@H](O)C1 | i
CN1C(C(=O)Nc2ccccn2)=C(O)c2ccccc2S1(=O)=O | i
O=C1Cc2cc(CCN3CCN(c4nsc5ccccc45)CC3)c(Cl)cc2N1 | ?
Cc1ccc2c(c1)c(-n1cccc1)c1n2CC(C)(C(=O)NC2CCCC2)N(Cc2cccnc2)C1=O (centres undefined) | i
CCNC(=O)[C@H]1O[C@@H](n2cnc3c(N)nc(NCCc4ccc(CCC(=O)O)cc4)nc32)[C@H](O)C1O (some centres undefined) | i
Cc1ccc(NS(=O)(=O)c2cc3[nH]c(=O)[nH]c3cc2C)cc1F | i

A draw from above in order of heavy-atom count, smallest number first.
structure | Methyltransferases
Cn1ncc2c(-c3ccc([S+](C)(=O)[O-])cc3)cc(C(=O)N3CCCC3)nc21 | i
O=C1Cc2cc(CCN3CCN(c4nsc5ccccc45)CC3)c(Cl)cc2N1 | ?
COc1ccccc1CN1C(=O)c2cc(C(C)(C)C)nn2CC1(C)C(=O)NC1CCCCC1 (centres undefined) | i
CCCCCCCOc1cc2c(cc1/C(C)=C/c1ccc(C(=O)O)cc1)C(C)(C)CCS2(=O)=O | +
CCCn1c(=O)c2ccc(C(=O)NC3CCCCC3)cc2n2c(=O)n(Cc3cccc(OC)c3)nc12 | i

Going on with the list:
structure | Methyltransferases
COc1cccc(CN2C(=O)c3cc4c(OC)ccc(OC)c4n3CC2(C)C(=O)NC2CCCCCC2)c1 (centres undefined) | i
CC(=O)N1CCN(C(=O)C[C@@H]2C[C@@H](C(C)C)[C@H](CNC(=O)c3cncnc3)C=C2C)CC1 | i
CNC(=O)c1cc(C)nc2onc(C3CCCN3C(=O)C(C)(C)C)c12 (centres undefined) | i
COc1ccc2c(c1)CN(C1CCN(C)CC1)CC[C@H]1COC(=O)N21 | i
CC1(C(=O)NC2CCCC2)Cn2c(cc3ccccc32)C(=O)N1c1ccc(CN2CCOCC2)cc1 (centres undefined) | i
C[C@@H]1C[C@H]2O[C@@]3(O[C@@H]2C(C)(C)O)C(O)[C@@]2(C)C4CCC5C(C)(C)[C@@H](O[C@H]6OC[C@H](O)[C@@H](O)[C@@H]6O)CC[C@@]56C[C@@]46CC[C@]2(C)C13 (some centres undefined) | i
COc1ccccc1-c1cccc(CN2CCC(NC(C)=O)CC2)c1 | i
Cc1ccc(NC(=O)Cn2nc3n(CC(C)C)c(=O)c4ccc(C(=O)NC(C)C)cc4n3c2=O)cc1F | i
CCC(C)/C=C(C)/C=C/C1=CC2=C(Cl)C(=O)C(C)(OC(C)=O)C(=O)C2=CN1C(CCC(=O)O)C(=O)O (centres undefined) | i
Cn1c(=O)n(C)c2cc(S(=O)(=O)N(Cc3ccccc3)C(=O)c3ccco3)ccc21 | i
CC(=O)N1CCC(N[C@@H]2C[C@H](Cn3cc(-c4cccnc4)nn3)[C@@H](O)[C@H]2O)CC1 | i
CCCN1C(=O)c2c(C(=O)NCc3cccc(F)c3)ncn2CC1(C)C(=O)NCc1ccc(F)cc1 (centres undefined) | i
O=C1[C@H](O[C@@H]2O[C@H](CO)[C@@H](O)[C@H](O)[C@H]2O)Oc2ccccc2N1O | i
O=C(c1cnc(C23CC4CC(CC(C4)C2)C3)[nH]c1=O)N1C[C@H]2CNC[C@H]2C1 | i
O=C(O)Cc1c(-c2ccccc2)c2cc(Cl)ccc2[nH]c1=O | i
CC(O)/C=C/C1OC(=O)CC1Nc1ccc(C(=O)O)cc1 (centres undefined) | i
COC(=O)Nc1nc2ccc(C(=O)c3ccc(F)cc3)cc2[nH]1 | i
CCCCN(CC)CCN1C(=O)c2ccc(-c3ccco3)n2CC1(C)C(=O)NC1CCCCCC1 (centres undefined) | i
CCCn1c(=O)c2ccc(C(=O)NC3CCCCC3)cc2n2c(SCc3cccc(OC)c3)nnc12 | i
CCOC(=O)c1cc2n(n1)CC(C)(C(=O)NC1CCCC1)N(c1cccc(OC)c1)C2=O (centres undefined) | i
Cc1cccc(C(=O)Nc2c(N3CCCCC3)c(-c3cccc(F)c3)nn2C)c1 | i
CCn1ccc(C(=O)N2CCC(N3C[C@H](O)C[C@H]3C(=O)NCc3cccnc3)CC2)n1 | i
C=Cc1ccc(Cn2nc3n(Cc4ccccc4)c(=O)c4ccccc4n3c2=O)cc1 | i
Cc1ccc(N(C)S(=O)(=O)c2ccc3c(c2)NC(=O)CC(=O)N3)cc1 | i
CCCc1c(-c2ccc(O)cc2)nn(-c2ccc(O)cc2)c1-c1ccc(O)cc1 | +
O=C(NC1CC1)C1c2ccccc2C(=O)N(C2CCCCC2)C12CCCCC2 (centres undefined) | i
COc1ccc(/C=C/C(=O)O[C@H]2[C@@H]3C=CO[C@@H](O[C@@H]4O[C@H](CO)[C@@H](O)[C@H](O)[C@H]4O)[C@@H]3[C@@]3(CO)O[C@@H]23)cc1O | ?
CCc1cccc(NC(=O)c2ncn3c2C(=O)N(C2CC2)C(C)(C(=O)NCc2ccc(F)cc2)C3)c1 (centres undefined) | i
O=C(CCc1nnc2n(Cc3ccccc3Cl)c(=O)c3ccccc3n12)NCCc1ccccc1 | i
COc1ccc(CNC(=O)C2(C)Cn3cnc(C(=O)Nc4ccc(F)cc4Cl)c3C(=O)N2C2CC2)cc1 (centres undefined) | i
CC[C@H]1CN(S(C)(=O)=O)CC[C@H]1CC(=O)NCc1ccco1 | i
COc1ccc2cc3n(c2c1)CC(C)(C(=O)NC1CCCCC1)N(Cc1cccs1)C3=O (centres undefined) | i
CCCC(=O)N1Cc2ccccc2CC2(CCCN(Cc3ccccn3)C2)C1 (centres undefined) | i
COc1ccccc1CNC(=O)C1(C)Cn2c(cc3ccccc32)C(=O)N1Cc1ccc2c(c1)OCO2 (centres undefined) | i
C=C1CC/C=C(/CO)C(=O)C[C@@H]2[C@@H]1C[C@@]2(C)COC(C)=O | +
CC(C)CNC(=O)/C=C/CCCCc1ccc2c(c1)OCO2 | i
COc1ccc(NC(=O)N2CCn3cccc3C2Cc2ccccc2)c(OC)c1 (centres undefined) | i
Cc1cnc(C2CCC2)n1CCC1CCN(C(=O)c2ccc3ccccc3n2)CC1 | ?
Nc1ncnc2c1c(-c1ccc(Oc3ccccc3)cc1)nn2[C@@H]1CCCNC1 | +
CC(=O)OC[C@]12[C@H](OC(C)=O)C(=O)[C@@H]3[C@@H](OC(C)=O)[C@@]14O[C@@]3(C)COC(=O)c1cccnc1[C@@H](C)[C@H](C)C(=O)O[C@@H]([C@H](OC(C)=O)[C@@H]2OC(C)=O)[C@]4(C)O | i
CC1(C(=O)NC2CCCCCCC2)Cn2c(cc3sccc32)C(=O)N1c1cccc(Cl)c1 (centres undefined) | i
CCN1CCCC2(CCN(C(=O)CCc3n[nH]c(C)c3C)C2)C1=O (centres undefined) | i
O=C(O)c1cccnc1C(=O)O | i
Cc1noc(C)c1S(=O)(=O)N1CC(C(=O)NC2CCCCC2)C2(CCOCC2)C1 (centres undefined) | i
O=C(NC[C@H]1OC[C@@H](N(Cc2cnc[nH]2)Cc2cnc[nH]2)[C@@H]1O)C1CCCC1 | i
CC(C)NC(=O)CSc1nnc2n(Cc3ccccc3)c(=O)c3ccccc3n12 | i
COC(=O)C1=CO[C@@H](O[C@@H]2O[C@H](CO)[C@@H](O)[C@H](O)[C@H]2O)[C@H]2[C@@H]1C=C[C@]21C=C([C@H](C)OC(=O)/C=C/c2ccc(O[C@@H]3O[C@H](CO)[C@@H](O)[C@H](O)[C@H]3O)cc2)C(=O)O1 | i
COC(=N)c1nc2ccc3ncnc(Nc4ccc(F)cc4Br)c3c2s1 | ?
COc1ccccc1CN1C(=O)c2cc3sccc3n2CC1(C)C(=O)NC1CCC(C)CC1 (centres undefined) | i
CC(C)Cc1noc(CN(C)C(=O)CC2C(=O)NCCN2CC(C)C)n1 (centres undefined) | i
O=C(NCC1CN(C(=O)c2cnccn2)CC12CCOCC2)N1CCCC1 (centres undefined) | i
O=C(O)CCCc1c[nH]c2ccccc12 | i
CCCn1c(=O)c2ccccc2n2c(SCC(=O)N3CCN(c4ccc(F)cc4)CC3)nnc12 | i
O=C(Cn1c(=O)oc2cc(S(=O)(=O)N3CCCC3)ccc21)Nc1nccs1 | i
CN(Cc1ccccc1CN1CCCC1)C(=O)C1CC2(CCNCC2)CN1C (centres undefined) | i
Cc1cc(CN2C[C@@H](COCC3CC3)[C@H](c3ccccn3)C2)n(C)n1 | i
Cc1ccc(NC(=O)CC2CCN(S(C)(=O)=O)C2)cc1 (centres undefined) | i
COC(=O)c1cc2n(n1)CC(C)(C(=O)NC1CCCCCC1)N(c1ccc(Cl)cc1)C2=O (centres undefined) | i
CC(C)N(C(=O)c1ccccc1-c1cc(NC2CC2)nc(N)n1)C(C)C | i
CC1CCC(NC(=O)C2(C)Cc3ccccc3C(=O)N2Cc2ccccc2)CC1 (centres undefined) | i

Additional compounds follow.
structure | Methyltransferases
COc1cccc(CNC(=O)CCc2nnc3n(CCC(C)C)c(=O)c4ccccc4n23)c1 | i
O=C1NC2(CCN(Cc3ccsc3)C2)COc2ccccc21 (centres undefined) | i
CCN1CC2(CCN(Cc3nc(COC)no3)CC2)CC(c2ccccc2)C1=O (centres undefined) | i
CSc1ccc2c(c1)N(CCC1CCCCN1C)c1ccccc1S2 (centres undefined) | ?
Cc1nn(CCO)cc1-c1c(-c2ccccc2)ncn1CC(=O)O | i
CCc1ccccc1N1C(=O)c2cc(C(C)(C)C)nn2CC1(C)C(=O)NCc1ccccc1 (centres undefined) | i
Cc1ccc(N2C(=O)c3cc4occc4n3CC2(C)C(=O)NC2CCCCC2)c(C)c1 (centres undefined) | i
Cc1ccccc1CCNC(=O)c1cc2n(n1)CC(C)(C(=O)NCc1ccccc1)N(C)C2=O (centres undefined) | i
CCCCCCc1cc2c(-c3ccccc3)cc(=O)oc2cc1OCC(N)=O | i
O=C1OCCC1CCC(=O)N1CCc2c(nc(-c3ccccc3)[nH]c2=O)C1 (centres undefined) | i
COc1ccc(NC(=O)CCC2CCCN(C(=O)c3ccccc3SC)C2)cc1Cl (centres undefined) | i
Cc1ccc(-c2n[nH]n3c2nc(=O)c2ccc(C(=O)NC4CCCCC4)cc23)cc1 | i

Nothing new here: 2 of the compounds above.
structure | Methyltransferases
CCCn1c(=O)c2ccc(C(=O)NC3CCCCC3)cc2n2c(SCc3cccc(OC)c3)nnc12 | i
CCOC(=O)c1cc2n(n1)CC(C)(C(=O)NC1CCCC1)N(c1cccc(OC)c1)C2=O (centres undefined) | i

Among those listed so far, 2 contain two or more sulfur atoms:
structure | Methyltransferases
O=C(Cn1c(=O)oc2cc(S(=O)(=O)N3CCCC3)ccc21)Nc1nccs1 | i
CSc1ccc2c(c1)N(CCC1CCCCN1C)c1ccccc1S2 (centres undefined) | ?
